CDC25B CDK2 inh: primary biochemical HTRF screen for blockers of M-phase inducer phosphatase 2 binding to CDK2/cyclin A; HTRF CDC25B-CDK2/CyclinA binding, anti-His/anti-Flag; hits give high values; z-score (no concentration beside the values); actives 0.72% (n = 94,000);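 note: score is relative to mean and SD of negative controls; strong numbers were not always called active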
HIV TAR-Tat: TAR RNA-Tat peptide displacers, HIV-1, primary screen, biochemical, FRET, FAM/TAMRA-labeled Tat | HIV-1 TAR RNA, Tat peptide displacement FRET; hits give high values | z-score (no concentration beside the values) | actives 0.6% (n = 100,000);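 note: score is relative to mean and SD of negative controls; some compounds called inactive have numbers as strong as hits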
Starred values were filed as active, the others as inactive; . = not tested or not shown.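 Rule for the calls: active = z-score from 3 up in half or more of its runs; inactive = the rest.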 Compounds were not picked by outcome, and some 0.87% of all compounds hit somewhere here.

SMILES	CDC25B CDK2 inh	HIV TAR-Tat
COc1ccc(C2=C(C)C(Nc3cccnc3)=NS2(=O)=O)cc1	-0.77	0.4
O=C(c1ccc(CN2C(=O)CCn3nccc32)cc1)N1CCN(C(=O)c2ccco2)CC1	.	2.1
COc1ccc2oc(=O)c(C(=O)Nc3ccccc3C(=O)O)cc2c1	0.28	.
OC(=Nc1ccccc1)Nc1ccccc1	2.1	.
CCc1nn2c(=O)c(S(=O)(=O)N3CC(=O)N(CCc4ccccc4)C(=O)C3)c(C)nc2s1	-0.34	1.5
CCCN1C(=O)C2(/C(=C(/O)c3ccc(OC)cc3)C(=O)C(=O)N2CCCOC)c2ccccc21 (centres undefined)	-0.31	2.5
COC(=O)c1cc(S(=O)(=O)NCC2CCCO2)cn1C (centres undefined)	-0.76	1.2
Cc1ccsc1CCNS(=O)(=O)c1ccc2[nH]c3c(c2c1)CCCCC3	.	2.9
c1ccc2c(NC3CCCCC3)nc(-c3ccncc3)nc2c1	-2.4	1.3
N[C@@H](Cc1ccc(F)cc1)C(=O)O	-2.3	.
O=C(CSc1n[nH]c(=O)n1C1CC1)c1ccc2c(c1)OCCO2	-2.1	.
CC(C)(C)c1ccc(-c2nc(-c3ccccc3)no2)cc1	-0.19	-0.44
Cn1c(SCC(=O)Nc2ccc3c(c2)OCO3)nc2c(c1=O)SCC2	-2.6	1.5
COC(=O)C1=C(C)NC(=S)NC1c1ccc(Br)cc1 (centres undefined)	0.3	.
CCSc1nc2n(n1)C(c1cccc(Cl)c1)C1=C(CCCC1=O)N2 (centres undefined)	-1.8	-1.2
COc1ccccc1N(CC(O)Cn1c(C)nc2ccccc21)S(=O)(=O)c1ccccc1 (centres undefined)	-1.9	.
Cc1ccc(CNc2ncnc3sc4c(c23)CCCC4)cc1	1.4	0.71
CCCOc1ccc(/C(O)=C2\C(=O)C(=O)N(Cc3cccnc3)C2c2ccc(F)cc2)cc1C (centres undefined)	0.13	1.6
CC1=C(C#N)C(c2ccc(O)cc2)C2=C(CCCC2=O)N1 (centres undefined)	-1.4	1.1
CCc1ccc2ncc(S(=O)(=O)c3ccc(C)cc3)c(N3CCOCC3)c2c1	-0.95	2.7
Cc1nc(C(=O)NN)c(C(F)(F)F)o1	0.76	.
NC(=O)c1c(NC(=O)c2cnn3c(C(F)F)cc(-c4ccccc4)nc23)sc2c1CCC2	1.5	0.95
CCn1nccc1C1CCCN1S(=O)(=O)c1cc(OC)ccc1OC (centres undefined)	-1.6	0.03
COc1ccccc1C1CC(=O)Nc2ccc3ccccc3c21 (centres undefined)	-0.7	.
O=C(Nc1cnn(Cc2ccc(F)cc2)c1)c1cc(-c2ccc(Br)cc2)on1	-8	1.1
Next compounds:
SMILES	CDC25B CDK2 inh	HIV TAR-Tat
COC(=O)c1sc(=S)n(-c2cccc(C)c2C)c1N	.	2.9
CN(CCNC(=O)CN1C(=O)CCSc2ccccc21)C1CCCCC1	-1.3	0.17
O=C(CCC1=NS(=O)(=O)c2ccccc2N1)N1CCN(c2ccc(F)cc2)CC1	.	0.07
CCCCC(=O)NC(c1cccs1)c1cc(Cl)c2cccnc2c1O (centres undefined)	-2.1	.
CCCOc1ccc(C2C(C#N)=C(C)NC3=C2C(=O)CC(C)(C)C3)cc1OC (centres undefined)	-1.1	0.04
O=C(Nc1ccc2nc3n(c(=O)c2c1)CCCCC3)C(=O)Nc1ccc(F)cc1F	-0.14	1
O=C(NC1CCCCC1)C1CCCN(S(=O)(=O)c2ccc3[nH]c4c(c3c2)CCCCC4)C1 (centres undefined)	.	-0.15
CCOC(=O)C1CCCN(C(=O)CCCn2nc(C)n3c(cc4sccc43)c2=O)C1 (centres undefined)	-0.7	-0.67
CCOC(=O)C1=C(C)NC2=C(C(=O)C(C(=O)OC)C(C)C2)C1c1ccc(SC)cc1 (centres undefined)	-1	0.76
CC(C)CCn1c(=O)c2sccc2n2c(CCCC(=O)NCc3ccco3)nnc12	.	-0.34
COc1ccc(C(=O)c2cnc3ccc(F)cc3c2N2CCCC2)cc1	-0.64	0.31
CC1CC(C)CN(C(=O)C(C)n2sc3ccccc3c2=O)C1 (centres undefined)	-1	1.9
O=c1oc2ccc(Br)cc2cc1-c1nnc(-c2ccncc2)o1	-1	.
C=CCn1c(SCC(=O)N2CCCc3ccccc32)nnc1-c1cc2ccccc2o1	.	1.3
N#CCSc1ccc2ccccc2c1	-1.4	.
c1ccc(-n2nnnc2COc2cccc3ccccc23)cc1	-0.48	0.32
Cc1onc(-c2ccccc2)c1C(=O)N/N=C/C=C/c1ccccc1	-1.1	.
COc1cc(S(=O)(=O)n2cnc3cc(C)c(C)cc32)ccc1Cl	-0.57	0.09
CCOC(=O)Oc1ccc2oc(C)c(C(=O)OCCOC)c2c1	-1.4	0.42
CN1C2CC(OC(=O)[C@H](CO)c3ccccc3)CC1C1OC12 (some centres undefined)	-2	.
Cn1cc(Cl)c(/C=C(\C#N)C(=O)c2ccco2)n1	-2.3	.
Oc1ccc(Oc2c(Cl)cncc2Cl)cc1	-0.56	.
CCN(CC)CCNc1ncnc2onc(-c3ccc(F)cc3)c12	.	0.26
Cc1cc(O)c(C(=O)c2cnc3c(c2)COc2ccccc2-3)cc1Cl	2	0.91
COc1cc(OC)c(C2SCCN2C(=O)c2cc3ccccc3oc2=O)cc1OC (centres undefined)	-0.37	.
(next part)
SMILES	CDC25B CDK2 inh	HIV TAR-Tat
CC(=O)Nc1c2n(c3ccc(F)cc13)CC(C)(C(=O)NC1CCCC1)N(CC1CCCO1)C2=O (centres undefined)	.	0.6
CC1CCCC(NC(=O)CCC(=O)n2ncc3cc(Cl)ccc32)C1C (centres undefined)	-0.51	-0.96
CCCNC(=O)c1c(NC(=O)c2snnc2C)sc2c1CCCC2	-0.31	0.22
O=C(CS(=O)(=O)Nc1ccc(Cl)cc1)CS(=O)(=O)Nc1ccc(Cl)cc1	0.85	.
COc1ccc(NC(=O)C2=C(C)C(=O)OC23CCC(C)CC3)c(OC)c1 (centres undefined)	0.86	0.23
COCCN[C@H]1CS(=O)(=O)C[C@@H]1S(=O)(=O)c1ccc(OC)cc1	-2.2	0.67
COC(=O)C1OC(c2ccccc2)OC1C(=O)OC (centres undefined)	-1.4	.
CCOc1ccc(-c2noc(CSc3nnc(-c4ccncc4)n3-c3ccc(Cl)cc3)n2)cc1	-2.1	2.6
COc1cc(OC)c(NC(=O)c2cn(C3CCCC3)c(=O)c3c2c2ccccc2n3C)cc1Cl	-2.5	2.2
Cc1nc(C)c(C(=O)Nc2nc(-c3ccc4c(c3)CCCC4)cs2)s1	-1.2	1.7
CCCN(CCC)S(=O)(=O)c1c(C(=O)OCC)c(C)n(C)c1C	.	0.94
CCCCN(C)CCCNC(=O)c1oc2ccc3c(c2c1C)C(O)CC1(CCCCC1)O3 (centres undefined)	-0.86	3
Fc1ccc(OCc2nn3c(-c4ccccc4Br)nnc3s2)cc1	-1.1	2.1
COc1ccc(C)cc1NS(=O)(=O)c1ccc(-c2cnc(C)o2)cc1	.	0.93
COc1ccc2nc(Sc3c([N+](=O)[O-])nc(C)n3Cc3ccccc3)[nH]c2c1	0.64	0.44
O=c1c2cc([N+](=O)[O-])ccc2oc2ncccc12	-0.56	.
c1ccc(-n2nnnc2SCCSc2nnnn2-c2ccccc2)cc1	-1.3	.
Cc1ccccc1C(=O)Nc1c(C)nc2c(C)cccn2c1=O	.	0.83
COC(=O)c1ccc(Cn2nc([N+](=O)[O-])cc2C)cc1	-0.92	1.2
CCN(CC)CCNC(=O)CCc1nnc2ccc(N3CCOCC3)nn12	.	0.93
O=C(Cn1cnc2nc3c(cc2c1=O)CCCC3)Nc1ccc(Cl)cc1	.	-0.13
Cc1[nH]c2c(C)cccc2c(=O)c1CN1CCCCC1C (centres undefined)	-0.84	0.84
CCCn1c2ccccc2c2nnc(SCC(=O)OC)nc21	-0.77	0.25
Cc1c(C(=O)N2CCCC2)oc2c1-c1nn(CC(=O)NC3CCCCC3)cc1CC2	.	2.6
NC(=O)CSc1ncc2c(n1)-c1ccccc1N(Cc1ccccc1)S2(=O)=O	.	0.9

Reformatted with values under each structure: 2 of the compounds above.
Results follow in this order: CDC25B CDK2 inh, HIV TAR-Tat
CC1CC(C)CN(C(=O)C(C)n2sc3ccccc3c2=O)C1 (centres undefined)
→ -1, 1.9
Oc1ccc(Oc2c(Cl)cncc2Cl)cc1
→ -0.56, .

(further entries)
SMILES	CDC25B CDK2 inh	HIV TAR-Tat
COC(=O)C1C(=O)NC(SCc2ccccc2)=C(C#N)C1c1ccccc1Cl (centres undefined)	0.33	1.3
CC(=O)OCCNc1cc(Cl)c2noc3c2c1C(=O)c1ccccc1-3	-1.1	-8.3
O=C1c2ccccc2C(=O)C1(Nc1ccc2c(c1)oc1ccccc12)c1ccccc1	4	.
CCC(C)NC(=O)Nc1cn(C)c(=O)c2ccccc12 (centres undefined)	.	1.4
Cc1cccc(-c2nc3nc(C)cc(N4CCN(CCO)CC4)n3n2)c1	-0.93	1.4
Cc1[nH]c(C)c(S(=O)(=O)N2CCCCC2C)c1C(=O)N1CCCC1 (centres undefined)	.	-0.11
CC1(C)Cc2c(sc3c2C(=O)NC(c2ccc(O)cc2)N3)CO1 (centres undefined)	-0.53	-0.59
Cc1nc(-c2nnc(Sc3ccc(C(F)(F)F)cc3[N+](=O)[O-])n2C)cs1	-1.7	.
CC1=C(c2ccc(F)cc2)S(=O)(=O)N=C1N(C)Cc1ccco1	.	-0.38
CC12CC(c3ccccc3O1)C(C(=O)N1CCOCC1)C(=O)N2 (centres undefined)	-1.1	.
CCCNS(=O)(=O)c1ccc2c(c1)CC(C)N2C(=O)CC (centres undefined)	.	0.51
COc1ccc(OC)c(N2CC(O)=C(c3nc4ccccc4n3C)C2=N)c1	-1.8	1.5
Cn1c(=O)c(C(=O)Nc2cccc(Br)c2)c(O)c2ccccc21	0.83	1.2
O=C(Cn1nnc2sc3c(c2c1=O)CCCC3)Nc1ccc(Cl)cc1	-0.51	-0.88
O=C(Nc1ncc(Cc2cccc(Cl)c2)s1)C1=Cc2ccccc2OC=C1	0.13	1
COc1cccc(/C=C2\N=C(SC)SC2=O)c1OCc1ccccc1	0.46	1.1
Cc1ccc(N2N=C(N)CC2=O)cc1	-0.61	-0.02
CCCCN1C=C(OC(=O)c2ccc(C)cc2)c2ccccc2S1(=O)=O	1.9	-0.92
CCOC(=O)N1CCN(c2nc(-c3cc(OC)ccc3OC)no2)CC1	.	0.06
Cc1cc2n(n1)C(c1ccc(O)cc1)Nc1ccccc1-2 (centres undefined)	-1.6	1.1
CCCc1cc(=O)n2nc(N(C)CC(=O)NC(C)C)sc2n1	-0.22	0.83
O=C(O)c1ccc(COc2ccc3ccc(=O)oc3c2)o1	-2	.
O=C(Nc1ncc(Cc2ccccc2Cl)s1)c1cc2ccccc2c(=O)o1	2.4	-0.09
CN(CC(=O)NCc1ccccn1)c1nnc(N2CCCC2=O)s1	-1.7	2.5
Cc1cc2nc(CSc3nnc(NC(=O)c4ccccc4Cl)s3)cc(=O)n2o1	.	0.65
Continuation.
SMILES	CDC25B CDK2 inh	HIV TAR-Tat
COc1nc(-c2ccccc2)cc(-c2ccccc2)n1	-2.4	1.4
COc1ccc(Cl)cc1NS(=O)(=O)c1cc(Br)cc2c1N(C(=O)C1CC1)CC2	-1.4	1.4
CSc1cccc(NC(=O)NCc2cccn2Cc2ccccc2)c1	.	0.65
O=C(Nc1ccc2nc3n(c(=O)c2c1)CCCCC3)C(=O)N1CCN(c2ccccn2)CC1	0.64	.
c1ccc(OCc2nc(-c3ccccc3)no2)cc1	-0.53	.
CC1(C)CC(=O)C2=C(C1)Nc1n[nH]c(-c3ccccc3)c1C2c1ccc(Br)cc1 (centres undefined)	-0.63	0.27
CCCCC(=O)Nc1nnc(SCc2cc(=O)n3nc(C)sc3n2)s1	.	1.4
COC(=O)c1ccc(Cn2cnc([N+](=O)[O-])n2)cc1	-3.7	-1.1
CCOC(=O)C1=C(C)NC2=C(C(=O)CCC2)C1c1ccc(C)s1 (centres undefined)	-1.4	0.2
O=C(Nc1ccc2[nH]ccc2c1)c1cccnc1Sc1ccccc1	-0.84	.
COc1ccc(-c2cc(C(F)(F)F)nc(N3CCN(C)CC3)n2)cc1	0.25	.
O=C(Nc1cccc(Cl)c1)C(=O)c1c[nH]c2ccccc12	-0.51	0.22
O=C(Cn1nnc(N2CCOCC2)n1)NNC(=S)NC(=O)C1CC1	-1.1	.

Arranged by molar mass (rising): some entries from above
SMILES	CDC25B CDK2 inh	HIV TAR-Tat
c1ccc(OCc2nc(-c3ccccc3)no2)cc1	-0.53	.
COC(=O)c1ccc(Cn2cnc([N+](=O)[O-])n2)cc1	-3.7	-1.1
O=C(O)c1ccc(COc2ccc3ccc(=O)oc3c2)o1	-2	.
O=C(Nc1cccc(Cl)c1)C(=O)c1c[nH]c2ccccc12	-0.51	0.22
CCCc1cc(=O)n2nc(N(C)CC(=O)NC(C)C)sc2n1	-0.22	0.83
CCOC(=O)C1=C(C)NC2=C(C(=O)CCC2)C1c1ccc(C)s1 (centres undefined)	-1.4	0.2
O=C(Nc1ccc2[nH]ccc2c1)c1cccnc1Sc1ccccc1	-0.84	.
CN(CC(=O)NCc1ccccn1)c1nnc(N2CCCC2=O)s1	-1.7	2.5
CSc1cccc(NC(=O)NCc2cccn2Cc2ccccc2)c1	.	0.65
COc1ccc(-c2cc(C(F)(F)F)nc(N3CCN(C)CC3)n2)cc1	0.25	.
O=C(Cn1nnc(N2CCOCC2)n1)NNC(=S)NC(=O)C1CC1	-1.1	.
CCCCC(=O)Nc1nnc(SCc2cc(=O)n3nc(C)sc3n2)s1	.	1.4
Cc1cc2nc(CSc3nnc(NC(=O)c4ccccc4Cl)s3)cc(=O)n2o1	.	0.65
CC1(C)CC(=O)C2=C(C1)Nc1n[nH]c(-c3ccccc3)c1C2c1ccc(Br)cc1 (centres undefined)	-0.63	0.27
COc1ccc(Cl)cc1NS(=O)(=O)c1cc(Br)cc2c1N(C(=O)C1CC1)CC2	-1.4	1.4
